HPGD inh: blocks human HPGD enzyme activity | Potency, µM, inactives show top-dose activity change, negative = inhibition, actives largely listed as inhibitors | 4.3% of 150,000 active | purified HPGD, NADH fluorescence kinetic, PGE2 substrate | P15428 | AID 894; active = well fitted inhibition curve with a large enough effect (not every such curve was filed as active); inconclusive = small, poorly fitted or top-dose-only effect, or another doubt; inactive = no such curve, though single readings can be large or run the other way;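 further: top concentration of the series not given in the record; plate controls included wells without enzyme; inactives centre near -10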
Target sequence (P15428 whole entry, looked up): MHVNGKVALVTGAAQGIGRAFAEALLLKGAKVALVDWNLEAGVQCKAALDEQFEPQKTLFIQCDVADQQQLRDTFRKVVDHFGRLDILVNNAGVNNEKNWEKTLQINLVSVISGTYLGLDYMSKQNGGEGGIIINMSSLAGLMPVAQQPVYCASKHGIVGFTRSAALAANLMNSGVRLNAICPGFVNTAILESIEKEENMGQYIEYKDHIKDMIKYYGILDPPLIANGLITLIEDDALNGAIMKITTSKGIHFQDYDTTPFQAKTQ
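NADH formation kinetics: reaction with 30 uM PGE2 and 1 mM NAD+ (final), 20 nM enzyme, Tris-HCl pH 8 with Tween 20, after 15 min compound preincubation at room temperature. Fluorescence change, last versus first of five reads.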
* hit, by the source's call; ? = inconclusive; & = joins results of further samples. On the % scale 0 is the no-effect control and ±100 the full control effect; potency means the concentration at half of the fitted maximal effect. These rows are one share of the data; count on the stated rates, not on these rows.

Compound,HPGD inh
CCC(Cc1ccccc1)NC(=O)C1CCN(S(=O)(=O)c2c(C)noc2C)CC1 (configuration not stated),-9.3%
CCOC(=O)CN(C(=O)c1ccccc1)c1ccccc1C,-2.5%
CC(=O)OCC(=O)[C@]1(O)C(C)CC2C3CCC4=CC(=O)C=C[C@@]4(C)[C@]3(F)C(O)C[C@@]21C (some centres not stated),-11.0%
CC(NC(=O)/C=C/c1ccco1)c1nc2ccccc2n1Cc1c(Cl)cccc1Cl (configuration not stated),-14.6%
CCCc1nnc(NC(=O)c2ccc([N+](=O)[O-])cc2)s1,-18.6%
CC1Cc2ccccc2N1C(=O)CSc1nc2c(c(=O)n(C)c(=O)n2C)n1Cc1ccccc1 (configuration not stated),-0.9%
c1ccc2c(Cn3nnc4ccccc43)cccc2c1,28.2µM*
O=C(c1cc(S(=O)(=O)N2CCOCC2)c(Cl)cc1Cl)N1CCCCC1,-2.3%
COc1cc(N=Nc2cccc(S(N)(=O)=O)c2)c2ccccc2c1N,-11.6%
CC(C)COc1cccc(C(=O)NC(=S)Nc2cccc(NC(=O)c3ccccc3Cl)c2)c1,-6.8%
CCCCn1c(C)cc(/C=C(\C#N)C(=O)O)c1C,-15.1%
CCc1nn(C(C)C(=O)NCCc2ccc(OC)c(OC)c2)c(=O)c2cc3occc3n12 (configuration not stated),-3.7%
CSc1nnc(Cc2cc(=O)[nH]c(=O)[nH]2)n1-c1cc(C)ccc1C,-1.1%
CC(=O)Nc1cc(S(=O)(=O)Nc2cccc(C)c2)c(C)cc1C,-0.6%
O=C(COc1ccc(Cl)cc1Cl)N1CCCC1,-21.1%
Cc1cccc(C(C)Nc2ccc([N+](=O)[O-])cn2)c1 (configuration not stated),?
C/C=C1\CC2C=CC1C2 (configuration not stated),-8.7%
O=C(NCCF)[C@H]1C[C@@H]1[C@H](NP(=O)(c1ccccc1)c1ccccc1)c1ccccc1,-1.7%&-0.5%
COC(=O)c1ccc(NC(=O)CN2CCN(c3cccc(Cl)c3)CC2)cc1,-7.7%
CCCCOc1ccc(NC(=O)C(=O)NCCCn2ccnc2)cc1,-5.2%

Next compounds:
Compound,HPGD inh
CCOC(=O)C1(c2nc(N)cs2)COC(=O)C1 (configuration not stated),-9.4%
CC1CC1c1ccc(/C=C(\C#N)C(=O)Nc2ccccc2Cl)o1 (configuration not stated),-8.1%
O=C(NCC1CCCO1)C1CCC(N2C(=O)c3ccccc3C2=O)CC1 (configuration not stated),-24.8%
COC(=O)c1ccc(CS(=O)(=O)c2ccc(C)cc2)cc1,-2.0%
CC1(C)CC(C)(c2ccc(O)cc2O)N(c2cccc(Cl)c2)C(=S)N1 (configuration not stated),-0.9%
CC(=O)c1cccc(N=c2scc(-c3ccc(S(=O)(=O)N4CCOCC4)cc3)n2CCO)c1,-7.4%
CCOC(=O)c1ccc(NC(=O)Nc2ccc(OC)c(OC)c2)cc1,-4.6%
CCC(=O)Nc1ccc2oc(-c3cccc(C)c3)nc2c1,?
O=S(=O)(/N=C(/Sc1ccccc1)c1ccccc1)c1ccccc1,?
COc1ccc(S(=O)(=O)Cc2ccc(C(=O)N3CCN(c4cccc(C)c4)C(C)C3)o2)cc1 (configuration not stated),-3.3%
CC1=C/C(=C/N(C)c2ccccc2)C(=O)S1,31.6µM*
COCCNC(=O)Cn1cc2c(n1)CCCCC2,-3.8%
C[C@H](CO)NC(=O)[C@H]1C[C@@H]1[C@H](NP(=O)(c1ccccc1)c1ccccc1)c1ccccc1,-7.3%
O=C(NCc1ccccc1)c1ccc(Oc2ccc(C(=O)NCc3ccccc3)cc2)cc1,12.6µM*
COc1ccc(OC)c(C2=NOC(C(=O)N3CCN(c4ccccc4)CC3)C2)c1 (configuration not stated),-12.5%
CSc1cccc(NC(=O)C(C)NS(=O)(=O)c2ccc(F)cc2)c1 (configuration not stated),-6.1%
COc1cc(/C=N/N2C(=O)c3ccccc3C2=O)ccc1O,-14.0%
O=S(=O)(/C=C/c1ccccc1)Nc1ccc2c(c1)OCO2,-28.7%
CCCn1c(SCC(=O)NC(=O)Nc2ccc(C)cc2C)n[nH]c1=O,-6.2%
CCc1ccccc1NC(=S)NCc1ccc2c(c1)OCO2,-11.3%

Next compounds follow.
Compound,HPGD inh
CCCCNC(=S)N(C)/N=C/c1c(F)cccc1F,-8.1%
Cc1ccc(C2=C/C(=C\c3cccnc3)C(=O)O2)cc1,-17.2%
Cc1cccc(NC(=S)/N=C(\N)Nc2nc(C)c3ccc(C)cc3n2)c1,-25.6%
CC(C)[C@H]1CC[C@@H](C)C(C(=O)c2ccccc2)C1=O (some centres not stated),-8.2%
c1ccc2c(c1)oc1c(NCCCn3ccnc3)ncnc12,-4.9%
CCOC(=O)Cc1c(C)nc2c(-c3ccccc3OC)c(C)nn2c1C,-11.3%
c1ccc(-c2nnc3n2CCCC3)cc1,14.1µM*
CCn1cc(C2=NC(C)CO2)c2ccccc21 (configuration not stated),-11.4%
NC(CSC12CC3CC(CC(C3)C1)C2)C(=O)O (configuration not stated),-25.8%
CCOC(=O)C1CCCN(C(=O)c2cn(CC(C)C)c(=O)c3cc(OC)c(OC)cc23)C1 (configuration not stated),-26.8%
Nc1ncnc2c1ncn2C1CCCC1,-14.4%
NC(=O)c1ccccc1NC(=O)/C=C/c1c(Cl)cccc1Cl,?
CCCN1CCN(C(=O)Cn2cccc2C(=O)c2ccccc2)CC1,-17.2%
COC(=O)C(Cc1ccc(O)cc1)NC(=O)c1ccccc1OC (configuration not stated),-11.4%
COc1ccc(CCNC(=O)c2c(-c3ccccc3Cl)noc2C)cc1,-2.9%
Cc1ccccc1Nc1oc(-c2ccccc2)nc1-c1ccccc1F,-18.1%
COc1ccc(OCC(=O)Nc2cccc3ncccc23)cc1,-9.9%
O=[N+]1C2=C(CCCC2)N([O-])C12CCCC2,-16.7%
C/C=C/c1ccc(OCCCCn2cncn2)c(OC)c1,-11.8%
Cc1cc(C)c2nc(N3CCC(C(=O)NCCCN4CCCCC4)CC3)sc2c1,1.6%

Shown as a hit in HPGD inh, of those listed so far:
Compound,HPGD inh
c1ccc2c(Cn3nnc4ccccc43)cccc2c1,28.2µM*
CC1=C/C(=C/N(C)c2ccccc2)C(=O)S1,31.6µM*
O=C(NCc1ccccc1)c1ccc(Oc2ccc(C(=O)NCc3ccccc3)cc2)cc1,12.6µM*
c1ccc(-c2nnc3n2CCCC3)cc1,14.1µM*

(further entries)
compound,HPGD inh
Cc1cccc(C)c1NC(=O)C(c1ccc([N+](=O)[O-])cc1)N(C)C(=O)c1ccccn1 (configuration not stated),-6.1%
CCC(Sc1nnnn1C)C(=O)Nc1ccc(C(C)=O)cc1 (configuration not stated),-8.1%
Cc1nnc(N2C(=O)c3oc4ccccc4c(=O)c3C2c2ccco2)s1 (configuration not stated),-8.2%
O=C(C1CC1)N1CCN=C1SCc1ccc(F)cc1,-3.5%
Cn1c(SCC(N)=O)nnc1C1CCN(S(=O)(=O)c2ccccc2C(F)(F)F)CC1,-6.4%
Cc1nnc(NC(=O)Cn2c(=O)sc3ccccc32)s1,-14.7%
O=C1/C(=C\c2ccccc2Cl)SC(=S)N1CCC(=O)N1CCCc2ccccc21,-11.0%
CCOC(=O)c1sc(NC(=O)CSc2nnc(C)s2)c(C(=O)OCC)c1C,-11.1%
CCOC(=O)N1CCC(NC(=O)CCc2nc(-c3ccccc3F)no2)CC1,-5.0%
Cc1c(C=O)c2ccccc2n1CC(=O)N1CCc2ccccc2C1,-1.8%
CC(C)CCNC(=O)C(c1ccco1)N(Cc1ccccc1)C(=O)c1snc(C(N)=O)c1N (configuration not stated),-9.1%
Cc1ccccc1C(=O)NNC(=O)C1CCCN(c2ncccn2)C1 (configuration not stated),-7.2%
CCOc1cc(N2CCOCC2)c(OCC)cc1NC(=O)COC(=O)c1cccc2ccccc12,2.4%
Cc1cccc(OCCNc2cc(N3CCN(C)CC3)ccc2[N+](=O)[O-])c1,-22.9%
CCOC(=O)Cn1c(S(=O)(=O)Cc2ccccc2)nc2ccccc21,-2.9%
C=CCn1c(=O)c(C#N)cc2c(=O)n3ccccc3nc21,?
O=C(COC(=O)c1ccc2ccccc2c1)Nc1ncc(C(F)(F)F)cc1Cl,-33.1%
Cc1c(CCO)c(=O)[nH]n1C(=O)c1ccc(F)cc1,-5.1%
CCC(C)(C(=O)NC1CCCCC1)N(Cc1cccs1)C(=O)c1ccc(=O)[nH]c1 (configuration not stated),-7.4%
CCOc1ccc(C(=O)c2nc3c(n2O)CCCC3)cc1,-19.5%

Structures listed so far containing a thiophene ring, fused or not (two):
compound,HPGD inh
CCOC(=O)c1sc(NC(=O)CSc2nnc(C)s2)c(C(=O)OCC)c1C,-11.1%
CCC(C)(C(=O)NC1CCCCC1)N(Cc1cccs1)C(=O)c1ccc(=O)[nH]c1 (configuration not stated),-7.4%

A different layout for some results above:
HPGD inh,Structure
-24.8%,O=C(NCC1CCCO1)C1CCC(N2C(=O)c3ccccc3C2=O)CC1 (configuration not stated)
-17.2%,CCCN1CCN(C(=O)Cn2cccc2C(=O)c2ccccc2)CC1
-11.4%,CCn1cc(C2=NC(C)CO2)c2ccccc21 (configuration not stated)
-2.5%,CCOC(=O)CN(C(=O)c1ccccc1)c1ccccc1C
-8.2%,Cc1nnc(N2C(=O)c3oc4ccccc4c(=O)c3C2c2ccco2)s1 (configuration not stated)
-3.7%,CCc1nn(C(C)C(=O)NCCc2ccc(OC)c(OC)c2)c(=O)c2cc3occc3n12 (configuration not stated)

(more compounds)
compound,HPGD inh
CCOc1ccc(CCNC(=O)C2CC(=O)N(C3CCCC3)C2)cc1OCC (configuration not stated),-2.2%
N#CC(=C1N=c2ccccc2=N1)c1c(O)[nH]c2ccccc12,-12.7%
CN1CCN(/C=N/c2sc3c(c2C#N)CCCCC3)CC1,-15.9%
COc1ccc(-n2nnnc2SCC(=O)c2cccc(OC)c2)cc1,-7.5%
O=C(COc1cccc2ccccc12)NNC(=O)[C@@H]1CCCC[C@@H]1C(=O)O,-1.5%
Cc1cc(=O)oc2cc(OCC(=O)N3CCCc4ccccc43)ccc12,?
CN(C)CCN1C(=O)c2oc3ccccc3c(=O)c2C1c1cccc(Br)c1 (configuration not stated),-0.8%
CC1(C(=O)NCc2cc(F)cc(C(F)(F)F)c2)C=CC2(CCCCC2)N1C(=O)c1ccccc1 (configuration not stated),-12.8%&-8.2%
CCCS(=O)(=O)c1nc(S(=O)(=O)c2ccc(C)cc2)c(N2CCCC2)s1,-16.6%
N#Cc1ccccc1NC(=O)CNc1ccccc1N1CCCCC1,-11.5%
Cc1cc(Cl)c(S(=O)(=O)Nc2ccon2)cc1OCC(=O)NC1CCCCC1,1.6%
COc1ccc(OC)c(NC(=S)NCCN2CCOCC2)c1,-2.3%
COc1ccc(N2CCN(CCCNC(=O)C3CCCN(S(=O)(=O)c4cnc[nH]4)C3)CC2)cc1 (configuration not stated),-12.8%
CCOC(=O)c1c(C)n(OCc2ccccc2)c2ccc3nonc3c12,?
Clc1cccc(CN2COc3c(cc(Cl)c4cccnc34)C2)c1,-8.6%
O=C(Nc1nnc(-c2ccc(Cl)cc2)o1)C1=COCCO1,-9.0%
Oc1ccc(Cl)cc1-c1cc(C(F)(F)C(F)F)nc(-c2ccccc2)n1,-3.9%
O=C(OC(C(=O)NC1CCCC1)c1cccnc1)C1=Cc2ccccc2OC1 (configuration not stated),-8.0%
CC(c1ccco1)N(C(=O)c1ccc(Cl)s1)c1ccccn1 (configuration not stated),-9.3%
O=C(NC1CCCCC1)NC1CCN(S(=O)(=O)Cc2ccccc2)CC1,1.6%

Additional records follow:
compound,HPGD inh
CS/C(=N\S(=O)(=O)c1cccs1)Nc1ccc(N2CCOCC2)cc1,-25.9%
CCOc1ccc(Cl)cc1CNCCNCCO,-16.8%
CC#C[C@@]1(O)CC[C@H]2[C@@H]3CCC4=CC(=O)CCC4=C3[C@H](c3ccc(N(C)C)cc3)C[C@]21C,4.9%
CCC(C)(C)N1CC(=O)N(Cc2ccccc2)C(c2ccc(OC)cc2)C1=O (configuration not stated),-2.5%
COc1ccc(-c2noc(CCCc3ccccc3)n2)cc1OC,-8.2%
Cc1nc2ccccc2c2oc(C(=O)NCCN3CCN(C)CC3)cc12,-9.1%
O=C(COC(=O)C1CCN(C(=O)c2ccc(Cl)cc2)CC1)c1ccco1,-7.6%
O=C(Nc1ccc(F)cc1)N(CCCN1CCOCC1)Cc1cc2cc3c(cc2[nH]c1=O)OCCO3,?
Cc1cc(C)n2cc(CSCc3ccccc3)nc2n1,?
CCOC(=O)N1CCN(C(=O)CS(=O)(=O)Cc2nc(-c3ccccc3C)oc2C)CC1,-16.1%
Nc1ccc(O)c([N+](=O)[O-])c1,-8.9%
O=C(NC1CCCCC1)C(c1ccc(Cl)cc1)N(C(=O)c1cnccn1)c1ccc2c(c1)OCO2 (configuration not stated),0.6%
Cc1nc(N2CCOCC2)nc2c1CCCC2,?
CC#CCCCC(=O)Nc1ccccc1C(=O)O,-17.8%
Cc1ccc(CSc2nc3ccncc3[nH]2)cc1,-6.8%
O=C(CSc1nnc(-c2cccs2)n1Cc1ccco1)c1ccc2c(c1)OCO2,-27.7%
Clc1ccc(Oc2nnnn2-c2ccccc2)cc1,-3.7%
CN(C)S(=O)(=O)c1cccc2c1C(=O)c1ccccc1C2=O,-9.5%
Cc1cccc(C)c1NC(=O)[C@H](C)N,-0.2%
CCn1c(O)c(N=NC(=O)Cn2ccc(C(F)(F)F)n2)c2ccccc21,-15.8%
Cc1ccc2nc(NCc3ccco3)c(C=NCc3ccco3)c(=O)n2c1,?

Screening results deposited in PubChem by National Center for Advancing Translational Sciences (NCATS).
